Hep lipid drop = modulators of hepatic lipid droplet formation; AID 1656; hit rate 0.4% among 240,000; AML12 mouse hepatocytes, oleate lipid droplets, BODIPY imaging; inhibition, % at 6.5 µM;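 active = lipid droplet intensity inhibited by at least 50%, with more than 500 cells counted; inconclusive = wells with under 300 cells, treated as cytotoxic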
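Assay system: AML12 hepatocytes (mouse); Probe or stimulus: oleic acid at 100 µM to induce lipid droplet formation; Dosing: compound at 6.5 µM only; Schedule: compound with oleate, overnight; Detection: fluorescence imaging, 20x objective, two fields per well; Measure: % inhibition of lipid droplet signal.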
Dynein cargo inh = blocks dynein driven cargo transport along microtubules; AID 1381; hit rate 0.47% among 220,000; z-score, hits read low; 3617.4 mouse cells, GR-EGFP nuclear translocation imaging; test concentration mostly 20 µM; stimulated with dexamethasone, 1 µM; stronger effect = lower value;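 active = plate z-score of nuclear minus cytoplasmic receptor signal below a set negative limit, without overly bright fluorescence or cell loss, cut at about -3.5 in these data, passing the limit was not always enough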;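 also: z-score of nuclear minus cytoplasmic ring GR-EGFP intensity difference per well; some compounds called inactive have numbers as strong as hits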
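Buffer or medium: tet-free medium with charcoal-stripped serum / Also added: dexamethasone agonist, 1.0 µM final, for 30 min / Timing: induction 48 h, compound 1 h, agonist 30 min / Measured by: high-content fluorescence imaging after fixation / Read-out: nuclear-to-cytoplasmic GR-EGFP distribution per well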
b-catenin transl = modulators of beta-catenin nuclear translocation; HeLa beta-catenin nuclear translocation, immunofluorescence imaging; nuclear translocation activity, % at 5 µM; hit rate 0.3% among 190,000; AID 1665;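 active = nuclear translocation activity above 50% at 5 µM, with a well cell count of 50 or more; inconclusive = wells under 50 cells across six images, flagged as toxic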;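 also: per-cell ratio of nuclear to cytoplasmic median beta-catenin stain intensity; plate controls were DMSO negative control for no effect and GSK-3 inhibitor IX positive control for full effect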
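Test system: human HeLa cell line; Doses: 5 µM primary, 0.02–20 µM confirmation; Incubation: 24 h compound exposure, 37°C; Detection: beta-catenin immunofluorescence imaging with DAPI; Read-out: beta-catenin nuclear/cytoplasmic ratio, % activation.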
Yfh1-depleted yeast = mitochondrial function rescue without frataxin homolog – Friedreich's ataxia, plus single-dose screen, dose response (AID 1465); S. cerevisiae Yfh1-off respiration, WST-1 reduction, 72 h; higher fold induction means a stronger effect; fold induction at 50 µM; hits with a dose series show EC50 in µM; hit rate 0.074% among 220,000;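 active = fold induction of absorbance versus untreated yeast above a set limit, then at least 30% activation at any dose in follow-up; inconclusive = repeats straddling the limit, or above it without dose testing; inactive = fold induction below the set limit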;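 also: activators that raise dye reduction in frataxin-depleted yeast; strong numbers were not always called active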
MT stabilize HCS = stabilizes microtubules in HeLa cells | HeLa tubulin immunostaining HCS, 24 h; share of cells brighter than vehicle mean+2SD | % tubulin-high responders, % at 10 µM | AID 2205 | hit rate 0.83% among 200,000;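 active = plate Z-score above 3 for both tubulin-high and condensed-nucleus cell shares, with cell loss under 80%, at 10 µM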;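 also: anti alpha tubulin signal scored within the nucleus-defined area of each cell; some results filed as inactive read as strong as hits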
WT yeast gro inh = growth inhibition of WT yeast, mitochondrial fusion screen. mitochondrial fusion phenotypic screen, WT strain. inhibition, % at 10 µM. hit rate 2.1% among 190,000; in the data active = inhibition above about 58%; tested in S. cerevisiae
Autophagy mod = alters autophagy in cells; MEF GFP-LC3 puncta imaging; test concentration mostly 10 µM; calls only at 10 µM (by protocol); hit rate 0.98% among 190,000; AID 463193;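 active = percentage of spot-positive cells more than 3 SD above its plate mean, without a fluorescence outlier flag or 80% toxicity; inconclusive = no clear call, values can overlap the other calls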;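 also: spot-positive cell cutoff set from DMSO-treated cells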
Ins promoter up = MIN6 insulin promoter up-regulation | hit rate 0.3% among 190,000 | MIN6 insulin promoter-GFP reporter, high-content imaging; stronger effect = higher value | z-score at 5 µM;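 active = z-score above 3 at 5 µM with at least 500 cells counted in the well; inconclusive = wells under 500 cells, flagged as cytotoxic or low count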
WT yeast gro inh mutant strain = further read-out of WT yeast gro inh, marked with its call; inhibition, %; mitochondrial fusion phenotypic screen, mutant strain inhibition
Dynein cargo inh cytoplasmic EGFP = second read-out of Dynein cargo inh, no call of its own (marks repeat the call); z-score; measured here: cytoplasmic GR-EGFP intensity; stronger effect = higher value
Dynein cargo inh nuclear GR-EGFP = also measured in Dynein cargo inh; calls as there; z-score; measured here: nuclear GR-EGFP intensity;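 lower value marks the stronger effect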
Dynein cargo inh cell count = also measured in Dynein cargo inh; calls as there; z-score; measured here: cell count per field
Ins promoter up cell count = second read-out of Ins promoter up, no call of its own (marks repeat the call); cell count; measured here: cytotoxicity, nuclei count;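 total cells summed across four imaged fields per well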
Hep lipid drop cells 6.5 µM = recorded beside Hep lipid drop, whose call it bears; cell count; measured here: cell count, cytotoxicity flag;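 cells counted across two imaged fields per well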
b-catenin transl cell count 5 µM = further read-out of b-catenin transl, marked with its call; cell count; measured here: cell count, cytotoxicity flag
MT stabilize HCS Hoechst-high % = also measured in MT stabilize HCS; calls as there; % Hoechst-high responders; measured here: nuclear condensation Hoechst responders;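 share of cells brighter than vehicle mean plus two SD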
MT stabilize HCS cytotoxicity % = second read-out of MT stabilize HCS, no call of its own (marks repeat the call); toxicity, %; measured here: cytotoxicity by cell density;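 0% = mean cell density of plate MIN control wells and 100% = no cells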
Autophagy mod cell loss 18 h = second read-out of Autophagy mod, no call of its own (marks repeat the call); toxicity, %; measured here: cell loss, nuclei count;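 cell loss after 18 h compound exposure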
Numbers without * were called inactive; i = inactive; ? = inconclusive; / = not tested or not shown; + = active, no number.

SMILES	Hep lipid drop	Hep lipid drop cells 6.5 µM	Dynein cargo inh	Dynein cargo inh cytoplasmic EGFP	Dynein cargo inh nuclear GR-EGFP	Dynein cargo inh cell count	b-catenin transl	b-catenin transl cell count 5 µM	Yfh1-depleted yeast	MT stabilize HCS	MT stabilize HCS Hoechst-high %	MT stabilize HCS cytotoxicity %	WT yeast gro inh	WT yeast gro inh mutant strain	Autophagy mod	Autophagy mod cell loss 18 h	Ins promoter up	Ins promoter up cell count
O=C(Nc1nnc(-c2ccc3c(c2)CCCC3)o1)c1ccccc1Cl	/	/	0.95	-0.18	0.9	-0.44	-6.5	1167	i	0.6	4.1	9.3	74	79	i	2	-0.21	931
CC1CCCN(c2ncnc3c2cnn3-c2ccc(Cl)cc2)C1 (stereo not drawn)	-13	649	-0.76	-0.83	-0.13	0.075	-0.4	1084	i	/	/	/	23	20	/	/	?	/
O=c1[nH]c(CCl)nc2cc(-c3ccc(F)cc3)sc12	4	818	/	/	/	/	/	/	/	/	/	/	/	/	/	/	/	/
COc1ccc2[nH]c(=O)c3c(c2c1)OC(C)(C)C=C3	/	/	0.04	0.027	0.075	0.53	-1.9	1345	i	5.1	2.6	9.2	23	1	i	11	-0.07	1215
O=C(COc1ccc(Br)cc1Cl)NC(=S)N1CCc2ccccc21	3	539	0.04	-0.22	0.71	-0.86	-3.8	528	i	2.6	3.1	2.0	72	81	i	-5	-0.28	1322
Brc1ccc2ncnc(Nc3cccc4ccccc34)c2c1	/	/	-0.52	0.073	-0.28	0.6	-0.3	1302	i	3.3	1.4	1.3	16	-5	i	9	2.8	1249
COc1ccc(CC(=O)Nc2cccc(-c3nnc(-c4ccc(C)cc4)o3)c2)cc1OC	7	721	-0.87	-0.33	0.16	1	3.6	447	i	3.8	4.2	0.3	1	-16	i	2	/	/
Cc1ccc(S(=O)(=O)Nc2cccc3ncccc23)s1	/	/	-1	-0.1	-0.32	-0.051	-3.6	894	i	6.7	1.0	13	71*	70*	i	92	-0.04	906
O=C(OCn1ncc(Br)c(Br)c1=O)c1ccc(F)cc1	-10	778	-5.1*	2.8*	-2.5*	-0.56*	5.9	962	i	1.3	1.4	6.0	87*	85*	i	92	/	/
Cc1ccc(-n2nc3c(=O)n(C(C)C(=O)NCCCc4ccccc4)nc(C)c3c2C)cc1 (stereo not drawn)	43	706	/	/	/	/	/	/	/	/	/	/	/	/	/	/	/	/
CCN1C/C(=C/c2cccc([N+](=O)[O-])c2)C(=O)/C(=C/c2cccc([N+](=O)[O-])c2)C1	0	605	-4*	0.77*	-2.4*	1*	13	300	i	42*	44*	67*	88*	60*	i	77	0.13	1128
O=C(Nc1ccccn1)Nc1ccccc1[N+](=O)[O-]	-2	785	/	/	/	/	/	/	/	/	/	/	/	/	/	/	/	/
O=C(c1ccccc1)c1nn(-c2ccc(Cl)cc2)c(=O)cc1C(F)(F)F	/	/	-0.59	-0.26	-0.065	0.21	/	/	i	2.6	1.9	0.6	1	7	i	-14	/	/
Cc1cc(C)n2nc(-c3ccccc3)cc2n1	-19	685	-0.58	-0.071	-0.43	0.46	1.2	969	i	4.1	3.1	8.5	-10	-1	i	-4	-0.12	1399
O=C(NNC(=O)c1ccccc1OCc1ccccc1)c1ccccc1O	5	692	/	/	/	/	/	/	/	/	/	/	/	/	/	/	/	/
O=C(Nc1ccc(S(=O)(=O)N2CCOCC2)cc1)c1ccc(CN2CCc3ccccc3C2)cc1	/	/	-0.67	-0.24	-0.74	1.1	1.5	1286	i	2.0	1.2	9.7	-16	-16	i	13	?	/
O=C(OCn1ncc(Br)c(Br)c1=O)c1c(F)cccc1F	-12	759	-4.8*	3.1*	-2.6*	0.17*	2.7	886	i	2.3	1.1	8.6	81	81	+	80*	?	/
CCOc1cc(/C=C(/C#N)c2ccc(Cl)cc2)cc(Cl)c1OCC(=O)O	-2	721	-0.66	-0.18	-0.23	0.74	2.1	893	i	5.9	1.2	4.9	-10	5	i	-48	-0.31	1400
N#CC(c1cccc(Cl)c1)c1ccc2c(C(F)(F)F)cc(C(F)(F)F)nc2n1 (stereo not drawn)	31	415	0.53	1	0.65	-0.11	0.5	1128	i	3.3	0.8	16	81*	80*	+	22*	?	/
CCCCCCc1cc2cc(S(=O)(=O)c3ccc(F)c(Cl)c3)c(=O)oc2cc1O	-34	606	-0.69	0.24	-0.41	0.67	0.8	931	i	5.3	0.4	3.3	49	10	i	20	-0.9	644
O=C(Nc1ccc(Br)c2ccccc12)c1ccc2ccccc2c1O	-1	713	-0.97	-0.26	-0.76	2.2	-0.6	1094	i	/	/	/	/	/	/	/	-0.58	994
O=C(NC(c1ccc(Cl)cc1)c1c(O)ccc2ccccc12)c1ccccc1 (stereo not drawn)	-16	657	-0.27	-0.19	-0.054	0.29	9.0	595	i	4.8	1.5	13	56	14	i	8	-1.9	605
CC(C)c1ccc(S(=O)(=O)/N=C2/C=C(Sc3ncn[nH]3)C(=O)c3ccccc32)cc1	-26	600	-5.3*	1.7*	-2.3*	-2.2*	-0.4	1132	i	4.4	2.5	10	47	10	i	-10	1.3	1196
Cc1ccccc1-c1nc(CSc2nc3c(c(=O)[nH]2)CCC3)c(C)o1	0	708	0.48	-0.25	1.3	-0.083	2.8	530	/	2.6	2.8	6.7	15	0	i	1	0.01	1094
CC(C)(C)OC(=O)NCC(=O)Oc1cc2oc(=O)cc(-c3ccccc3)c2cc1Cl	-43	624	-0.94	-0.18	-0.64	1.7	-2.2	583	i	4.7	2.7	6.6	13	-19	i	9	0.5	1308
Following part:
SMILES	Hep lipid drop	Hep lipid drop cells 6.5 µM	Dynein cargo inh	Dynein cargo inh cytoplasmic EGFP	Dynein cargo inh nuclear GR-EGFP	Dynein cargo inh cell count	b-catenin transl	b-catenin transl cell count 5 µM	Yfh1-depleted yeast	MT stabilize HCS	MT stabilize HCS Hoechst-high %	MT stabilize HCS cytotoxicity %	WT yeast gro inh	WT yeast gro inh mutant strain	Autophagy mod	Autophagy mod cell loss 18 h	Ins promoter up	Ins promoter up cell count
Cc1ccc(C)c(NC(=O)c2ccccc2NS(=O)(=O)c2cc([N+](=O)[O-])ccc2C)c1	-16	698	-0.36	-0.21	0.17	-0.25	0.9	1043	i	4.4	2.5	13	80*	54*	i	-5	-0.27	947
O=C(Cc1ccc(Cl)cc1Cl)Nc1ccncc1Cl	-6	822	/	/	/	/	/	/	/	/	/	/	/	/	/	/	/	/
CCOC(=O)c1sc(NC(=O)c2cc(-c3ccccc3C)nc3ccccc23)c(C#N)c1C	-41	782	-0.53	-0.27	-0.32	1.6	5.6	816	i	4.3	3.9	8.3	18	24	i	19	0.12	757
Cc1cccc2cc3c(N)c(C(=O)Nc4ccc(N5CCOCC5)cc4)sc3nc12	/	/	-0.49	0.3	-0.31	0.13	1.5	1381	i	2.7	3.0	4.5	2	-1	i	-3	-0.2	1440
N#Cc1ccc(C(=O)Nc2nc(-c3cccs3)c(C(=O)C(F)(F)F)s2)cc1	-25	618	0.98	-0.04	1.6	-1.3	-0.6	573	/	3.9	2.8	14	53	54	i	-2	-1.4	743
CCOc1cc(/C=C2\CN(C)C/C(=C\c3ccc(O)c(OCC)c3)C2=O)ccc1O	-20	466	/	/	/	/	/	/	/	/	/	/	/	/	/	/	/	/
COc1cccc(C(=O)Nc2ccc3nc(N4CCN(c5ncccn5)CC4)cc(C)c3c2)c1OC	2	718	-0.35	-0.17	0.49	0.22	-2.3	1222	i	5.3	15	22	5	-16	i	7	-2.2	890
COc1ccc(-c2cc(C(F)(F)F)nc(S(=O)(=O)CCCC(=O)Nc3cccnc3Cl)n2)cc1OC	-2	710	-5.1*	1.7*	-2.6*	0.21*	-0.2	1054	i	3.5	2.7	12	-21	-9	i	14	-0.3	1238
CCCCCCCCCn1c2c(c(=N)c3c1CCC3)CCC2	-121	571	-2.1	2	-1.3	-4.8	-5.4	932	i	4.1	6.1	15	75	86	i	25	?	/
O=C(CSc1nnc2c(n1)[nH]c1ccccc12)NC1CCCCC1	-21	818	/	/	/	/	/	/	/	/	/	/	/	/	/	/	/	/
Cc1ccc(NC(=O)c2cnc(N3CCN(c4ccccn4)CC3)c3ccccc23)c(Br)c1	-2	743	-0.22	-0.27	-0.38	-0.26	/	/	i	6.1	3.8	21	22	13	i	21	/	/

Record cards, as listed above. Order of values: Hep lipid drop	Hep lipid drop cells 6.5 µM	Dynein cargo inh	Dynein cargo inh cytoplasmic EGFP	Dynein cargo inh nuclear GR-EGFP	Dynein cargo inh cell count	b-catenin transl	b-catenin transl cell count 5 µM	Yfh1-depleted yeast	MT stabilize HCS	MT stabilize HCS Hoechst-high %	MT stabilize HCS cytotoxicity %	WT yeast gro inh	WT yeast gro inh mutant strain	Autophagy mod	Autophagy mod cell loss 18 h	Ins promoter up	Ins promoter up cell count
CCCCCCCCCn1c2c(c(=N)c3c1CCC3)CCC2 in the list: -121	571	-2.1	2	-1.3	-4.8	-5.4	932	i	4.1	6.1	15	75	86	i	25	?	/
COc1cccc(C(=O)Nc2ccc3nc(N4CCN(c5ncccn5)CC4)cc(C)c3c2)c1OC in the list: 2	718	-0.35	-0.17	0.49	0.22	-2.3	1222	i	5.3	15	22	5	-16	i	7	-2.2	890

Screening results deposited in PubChem by several laboratories.

This is a subset; count on the stated rates, not on these rows.
